Screens from PubChem BioAssay.
Calb biofilm kill – mixture kills Candida albicans biofilm cells | C. albicans biofilm persisters + clotrimazole, fluorescence viability; primary screen in compound mixtures of four per well | inhibition, % at 7.6 µM | hit rate 0.02% among 120,000;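 active = inhibition above 30.3% in the primary screen of four-compound pools, then above 30% when the compound was retested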;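 note: compounds exposed to preformed 24 h biofilms for 48 h; the number belongs to the whole pool; some results filed as inactive read as strong as hits; inactives centre near 12; 0% = biofilm with clotrimazole alone and 100% = kill control; retested singly at about 60 µM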
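Test system: C. albicans biofilms. Buffer or medium: RPMI/MOPS medium, pH 7.0. Timing: 48 h compound exposure at 37 °C. Technique: Alamar Blue fluorescence. Evaluation: percent inhibition of biofilm viability.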
* = called active by the depositor. Only part of the results is shown; the hit share may differ from the screen's.

mol | Calb biofilm kill
CC1(C)CC(=O)C(C(c2cccc([N+](=O)[O-])c2)C2C(=O)CC(C)(C)CC2=O)C(=O)C1 | 9.2
CC1CN(C(=O)C(C)N2CCN(c3ccccc3Cl)CC2)CC(C)O1 (stereo not drawn) | 14.8
CN(CC(=O)Nc1ccc2c(c1)OCO2)S(=O)(=O)c1ccc2c(c1)CCC(=O)N2 | 20.5
O=C(CCSc1ccccc1)N1CCN(c2ccccc2F)CC1 | 8.7
CC1C2(C)OC(=N)C(C#N)(C(C)O2)C1(C#N)C#N (stereo not drawn) | 33.5
COc1ccc(C(=O)NN2C(=S)N(c3ccc(OC)cc3)C(=O)C2CC(N)=O)cc1 (stereo not drawn) | 19.9
O=C(Nc1nc(-c2ccc3c(c2)Cc2ccccc2-3)cs1)c1ccccc1 | 5.4
Cc1nn(C(C)C(=O)N2CCOCC2)c(C)c1[N+](=O)[O-] (stereo not drawn) | 9.8
CCn1c(C)nc2cc(C(=O)N/N=C/c3ccc(OC)cc3)ccc21 | -3.3
C/C(N)=C(/C#N)C(=O)CSc1cc(C)c2ccccc2n1 | 12.0
CN(C(=O)c1ccccc1C(=O)OCC(=O)NC(=O)NC(C)(C)C)C1CCCCC1 | 2.3
CN(NC(=O)CN1C(=O)c2ccccc2C1=O)C1=NS(=O)(=O)c2ccccc21 | 2.5
Cc1cccc(N2CN(Cc3cccnc3)CNC2=S)c1 | 9.6
CCCCC1=CC2=C(c3ccco3)C(=O)C(C)(OC(=O)c3ccc(OC)cc3)C(=O)C2=CN1c1ccc(OC)cc1 (stereo not drawn) | 14.7
COc1ccccc1/C=N/NC(=S)Nc1cccnc1 | 13.3
CCCc1cnc(N2CCN(C(=O)c3c(-c4ccccc4)noc3C)CC2)nc1 | 26.0
Cc1sc2ncn(CC(=O)Nc3c(F)cccc3F)c(=O)c2c1S(=O)(=O)N1CCC(C)CC1 | 8.4
CCC1CC(CSC(=N)N)OC1=O (stereo not drawn) | 21.9
CCc1nc2scc(-c3ccc(C)cc3)c2c(=O)n1N | 8.1
CC(C)Sc1n[nH]c(=O)n1-c1cccc(C(F)(F)F)c1 | 11.4
Cc1ccc(NC(=O)c2ccn(C)n2)c(Br)c1 | 8.7
COc1ccccc1NC(=O)COc1ccc(Br)cc1CNC1CCCC1 | 26.3
COC(=O)CCSc1cc(NCCOC(C)=O)c([N+](=O)[O-])c2nonc12 | 14.2
CCC(CC)NC(=O)CO/N=C/c1ccccc1OC(F)F | -2.2
COc1ccc2cc(C)c3nnc(SCC(=O)Nc4cc(OC)c(OC)cc4C(=O)O)n3c2c1 | 11.2
O=C1CCc2cc(S(=O)(=O)NC(C(=O)N3CCN(c4ccccn4)CC3)c3ccccc3)ccc2N1 (stereo not drawn) | -2.2
CCCCN(CCCC)S(=O)(=O)c1c(C)[nH]c(=O)[nH]c1=O | 10.6
Cc1nc(SCc2ccc(O)c([N+](=O)[O-])c2)n[nH]1 | 20.2
NC(=S)N/N=C/c1ccc(/C=N/NC(N)=S)cc1 | 26.1
CC(C)N1CN(c2ccccc2)C(=S)N(c2ccccc2)C1 | 16.4

mol | Calb biofilm kill
O=C1c2ccc([N+](=O)[O-])cc2C(=O)N1CNc1ccccn1 | 15.8
CN(C)S(=O)(=O)c1cccc(NC(=O)c2cc3c(cc2Cl)N2CCCCCC2=NS3(=O)=O)c1 | 5.3
Cn1c(=O)c2cc(S(=O)(=O)NCCC(=O)Nc3ccc(F)cc3F)ccc2n(C)c1=O | -1.6
O=C(Nc1ccc(NC(=O)C2CCCCC2)nc1)c1cccs1 | 4.3
CCOC(=O)CN(C(=O)CSc1nnc(COc2ccc(OC)cc2)n1CC)c1ccccc1 | 17.4
COc1ccc(C2CCCN2C(=S)Nc2cccc(Cl)c2)cc1OC (stereo not drawn) | 6.2
CC1CC(OC(=O)C(O)c2ccccc2)CC(C)(C)N1C (stereo not drawn) | 14.9
O=C(Nc1cccc(S(=O)(=O)Nc2ccccc2Cl)c1)c1ccc(Cl)nc1 | 22.2
CCCCN1C(=O)c2ccc(C(=O)NCCN3C(=O)S/C(=C\c4cccnc4)C3=O)cc2C1=O | 9.1
COC(=O)c1cc(-c2ccc(C)cc2)n[nH]1 | 25.9
C=C(Br)Cn1cnc2ccccc21 | 5.7
O=C(NCc1ccncc1)c1ccc(N2CCCC2)c([N+](=O)[O-])c1 | -1.2
Cc1ccsc1C(=O)c1sccc1C | 8.2
CCOC(=O)N/N=C\c1ccc(-c2cccc(C(F)(F)F)c2)o1 | 6.5
Cn1nccc1NC(=O)Nc1ccc(Cl)cc1 | 10.6
CN(C(=O)COc1cc(C(F)(F)F)nn1C)c1ccccc1 | 8.1
COc1cccc(OC)c1C(=O)N=c1sc2cc(S(C)(=O)=O)ccc2n1C | 2.6
COc1ccc(NC(=O)CSc2nc(N)c3cc4c(nc3n2)CCCC4)cc1 | 21.5
CCOC(=O)C1(Cc2cccc(F)c2)CCN(C(=O)c2cnccn2)CC1 | 30.1
Cc1cccc(NC(=O)c2cc([N+](=O)[O-])ccc2N2CCCCC2)n1 | 12.3
O=C(NCc1ccccc1)N1CCOCC1 | 8.4
Cc1cc(C(=O)NCc2cccs2)nn1C | 3.8
CCSc1cc(N2CCOCC2)nc(-c2ccc(Cl)cc2)n1 | 11.5
CC(C)/C(=N\NS(=O)(=O)c1ccc(Br)cc1)c1cccs1 | 12.6
COc1ccccc1NS(=O)(=O)c1cc(NC(=S)NCC2CCCO2)ccc1C (stereo not drawn) | 14.6
COC(=O)c1nc2ccc(N3CCOCC3)cc2c(C)c1C(=O)OC | 9.0
CC(O)c1nc2ccccc2n1CC(=O)Nc1ccc2c(c1)OCCO2 (stereo not drawn) | 4.3
COc1cc(NS(=O)(=O)c2ccc(Nc3nc(-c4ccccn4)cs3)cc2)nc(OC)n1 | 12.6
Cc1cc(NC(=O)c2ccc(-c3ccc(F)c(Cl)c3)o2)no1 | 13.0
O=C(O)CN1CCN(Cc2ccc(Cl)cc2)C1=O | 16.9

Entries above with a COOH group, in the order listed:
mol | Calb biofilm kill
COc1ccc2cc(C)c3nnc(SCC(=O)Nc4cc(OC)c(OC)cc4C(=O)O)n3c2c1 | 11.2
O=C(O)CN1CCN(Cc2ccc(Cl)cc2)C1=O | 16.9

3 entries from above, sorted by SMILES length, lowest first.
mol | Calb biofilm kill
O=C(NCc1ccccc1)N1CCOCC1 | 8.4
Cn1nccc1NC(=O)Nc1ccc(Cl)cc1 | 10.6
CC(O)c1nc2ccccc2n1CC(=O)Nc1ccc2c(c1)OCCO2 (stereo not drawn) | 4.3

Next section:
mol | Calb biofilm kill
O=C(NC(=S)Nc1ccccc1N1CCCC1)c1ccccc1[N+](=O)[O-] | 11.2
COc1ccc(C2C(=O)c3ccccc3C2=O)cc1 | 3.6
C=CCn1c(SCC(=C)C)nc2c1c(=O)[nH]c(=O)n2C | 15.0
NNC(=O)C12CC3CC(C1)CC(n1ncnn1)(C3)C2 | 9.3
CCOC(=O)c1nn(-c2ccccc2C)c2nc(CC(C)C)c(C#N)c(=O)n12 | 19.8
Cc1cc(NCCc2ccccc2F)n2ncnc2n1 | 1.4
CCCCN(C(=O)/C=C/c1ccco1)c1c(N)n(CCC)c(=O)[nH]c1=O | 11.0
COc1ccc(S(=O)(=O)N(C)C)cc1NC(=O)Cc1cccs1 | 5.0
Cc1ccc(-n2[nH]c(C)c(/C=N/Nc3ccc([N+](=O)[O-])cc3[N+](=O)[O-])c2=O)cc1 | 16.1
O=S(=O)(Nc1cccc(-c2nc3cccnc3s2)c1)c1ccc2c(c1)CCCC2 | 19.0
COCCN1Cc2cccc(C(=O)NCC3CCN(CC(C)C)C3)c2C1=O (stereo not drawn) | 6.1
COC(=O)Cn1c(O)c(N=NC(=O)OC)c2ccccc21 | 17.4
CC(C)CCNC(=O)COc1cccc2c1OC(C)(C)C2 | 7.5
COc1cc2c(cc1OC)C(Nn1cnnc1)=NC1(CCCC1)C2 | 13.9
O=S(=O)(CC(CN1CCCCC1)N1CCCCC1)c1ccc2ccccc2c1 (stereo not drawn) | -3.0
O=C(CSc1nc2ccccc2c(=O)n1-c1ccccc1)N/N=C/C=C/c1ccccc1[N+](=O)[O-] | 11.1
CSc1nnc2ccc(-c3cccs3)nn12 | 16.4
COc1ccc(Cn2nnnc2C(c2cc3cccc(C)c3[nH]c2=O)N2CCN(C)CC2)cc1 (stereo not drawn) | 4.7
O=C(OCc1nnc(-c2ccccc2)o1)c1cc2ccccc2cc1O | 11.3
Cc1ccc(C(=O)N2CCCC(C(=O)c3cc(F)ccc3F)C2)s1 (stereo not drawn) | 21.6
Cn1cnnc1SCC(=O)NC1CCCCC1 | 3.9
O=C(CCNS(=O)(=O)c1cccs1)Nc1ccccc1F | 9.4
COc1ccccc1N1CCN(S(=O)(=O)c2ccc3c(c2)n(C)c(=O)n3C)CC1 | 9.3
CCOC(=O)C(NC(=O)CC)(Nc1sc(C)c(CC)c1C#N)C(F)(F)F (stereo not drawn) | 9.6
O=C(NCCCn1ccnc1)c1cc2c(ccc3ccccc32)o1 | 10.0
CCOC(=O)N1CCN(CC(=O)Nc2sc(CC)cc2C(=O)c2ccc(OC)cc2)CC1 | 15.9
COc1cc(C)nc(N(Cc2ccccc2)S(=O)(=O)c2ccc(C)cc2)n1 | 18.5
Cc1nnc(SC/C=C/c2ccccc2)n(N)c1=O | 14.9
CC(C)(O)C#Cc1ccc(C(=O)NC2CCCCC2)s1 | 9.2
CC1(C)O[C@@H]2C[C@H]3[C@@H]4CCC5=CC(=O)C=C[C@]5(C)[C@@]4(F)[C@@H](O)C[C@]3(C)[C@]2(C(=O)CO)O1 | 6.4

structure,Calb biofilm kill
Cc1cccc(COc2ncnc3nc[nH]c23)c1,13.9
Cc1ccc(/C=N/n2c(-c3ccco3)n[nH]c2=S)s1,6.3
COc1cc(/C=C2\CC/C(=C\c3cc(OC)c(OC)c(OC)c3)C2=O)cc(OC)c1OC,-6.7
Cc1cc(=O)cc(C)n1-c1ccc(F)cc1F,13.0
CCC(C)(C)NC(=O)C(c1cccnc1)N(C(=O)c1csnn1)c1ccccc1 (stereo not drawn),-3.2
O=C(NC(=S)Nc1ccc(N2CCOCC2)c(Cl)c1)c1cncc(Br)c1,6.1
CCCC(=O)OCC(=O)Nc1ccccc1C#N,8.2
Cc1cc(C(=O)OCC(=O)Nc2sc3c(c2C#N)CCC(C)C3)c2ccccc2n1 (stereo not drawn),8.0
CC(C)(C)OC(=O)CNC(=O)c1nc[nH]c1C(=O)NCC(=O)OC(C)(C)C,13.9
Cc1ccc2nc(NC(=O)C3CCCN(S(=O)(=O)c4cccc5nonc45)C3)sc2c1 (stereo not drawn),20.4

Rewritten as labelled records: entries from further up.
> CCCC(=O)OCC(=O)Nc1ccccc1C#N
  Calb biofilm kill: 8.2

> Cc1cc(C(=O)OCC(=O)Nc2sc3c(c2C#N)CCC(C)C3)c2ccccc2n1 (stereo not drawn)
  Calb biofilm kill: 8.0

> CC(C)(C)OC(=O)CNC(=O)c1nc[nH]c1C(=O)NCC(=O)OC(C)(C)C
  Calb biofilm kill: 13.9

> Cc1ccc2nc(NC(=O)C3CCCN(S(=O)(=O)c4cccc5nonc45)C3)sc2c1 (stereo not drawn)
  Calb biofilm kill: 20.4

(list continues)
structure,Calb biofilm kill
COc1ccc(NC(=O)c2cc(C)nc3ccccc23)c(OC)c1,13.6
COc1ccc(-n2c(=S)[nH]c3ncccc3c2=O)cc1,7.6
CCC1=C(OC(=O)N(CC)CC)N2C(=O)OC(=NCC3CC3)[C@]2(Cc2ccccc2)[C@H]2C1=CC[C@H]1C(=O)N(CC)C(=O)[C@H]12,13.3
Cc1ccc(-c2nn(-c3ccccc3)cc2CNCc2ccccc2)cc1,16.6
CCC1S/C(=N/N=C/c2ccco2)N(Cc2ccccc2C)C1=O (stereo not drawn),13.2
COC(=O)c1ccc(CN2[C@H](C(=O)OC)C[C@@]3(O)[C@@H](O)[C@@H](O)[C@@H](O)C[C@@H]23)cc1,15.0
COc1ccc(/C=N/NC(=O)C(C)N(c2ccc(OC)cc2)S(C)(=O)=O)cc1 (stereo not drawn),8.1
CC(=O)NC1C(OCc2ccccc2)OC2COC(c3ccccc3)OC2C1OCC(=O)O (stereo not drawn),24.0
CCC(=O)N/N=c1/sc2ccccc2n1C,18.8
CNc1ccc([N+](=O)[O-])cc1C(=O)O,19.6

structure,Calb biofilm kill
O=c1[nH]c2ccc(S(=O)(=O)N3CCN(c4ccc(F)cc4)CC3)cc2o1,18.3
O=C(CN1CCN(S(=O)(=O)c2ccccc2[N+](=O)[O-])CC1)Nc1ccc(N2CCOCC2)cc1,27.8
Cn1ncc(Br)c1C(=O)Nc1ccc(F)cc1F,12.9
Cn1nnnc1SCC(=O)Nc1cccc([N+](=O)[O-])c1,0.9
Cc1cc(NS(=O)(=O)c2ccc(NC(=O)c3cc4cc(Br)ccc4oc3=O)cc2)no1,4.9
COC(=O)c1cc(OC)c(OC)cc1NC(=O)c1cccc(C)c1,3.7
CC(C)(C)N(Cc1ccccc1)C(=O)COC(=O)c1cccc([N+](=O)[O-])c1,15.8
COc1cc(C2C=C(Nc3ccccc3)C(=O)N2c2ccccc2)ccc1O (stereo not drawn),4.3
COc1cccc(CNC(=O)CCC2CCCN(C(=O)c3ccoc3C)C2)c1 (stereo not drawn),7.5
Cn1c(=O)c2c(ncn2Cc2nnc(N)s2)n(C)c1=O,13.6

structure,Calb biofilm kill
COc1cc(OC)cc(C(=O)N[C@H](C(=O)OCc2cc(=O)oc3cc(C)ccc23)C(C)C)c1,14.2
CC(C)CCn1c(O)c(N=NC(=O)c2ccco2)c2ccccc21,13.8
CC(=O)NC(=S)Nc1ccc(NC(=O)c2cccnc2Cl)cc1,23.5
CCN(Cc1cc(OC)c(OC)c(OC)c1)C(=S)Nc1cccc(SC)c1,22.0
CCC(=O)c1ccccc1OCCN1CCN(CC)CC1,-0.1
CCC(O)C1CCN(Cc2cn(Cc3ccccc3)nc2-c2cc3ccccc3o2)CC1 (stereo not drawn),13.2
CC1(C)CC(C)(O)N(Cc2ccccc2)C(=S)N1 (stereo not drawn),15.8
